Screening data from PubChem.
FGF22 binding = binders of human FGF22 protein, primary screen, FGF22 synaptogenesis inhibitor project, biophysical, thermal shift, single point | Fibroblast growth factor 22 (Homo sapiens), Q9HCT0 | recombinant FGF22 thermal shift, SYPRO orange fluorescence; percent of sucrose octasulfate shift, DMSO zero | calls only at 9.99 µM | hit rate 1.5% among 340,000 | AID 651658, 2012;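 active = melting point raised past a set limit in the mean and every replicate; inconclusive = no clear call; three in four hits are not shown here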
Target sequence (Q9HCT0 whole entry, looked up): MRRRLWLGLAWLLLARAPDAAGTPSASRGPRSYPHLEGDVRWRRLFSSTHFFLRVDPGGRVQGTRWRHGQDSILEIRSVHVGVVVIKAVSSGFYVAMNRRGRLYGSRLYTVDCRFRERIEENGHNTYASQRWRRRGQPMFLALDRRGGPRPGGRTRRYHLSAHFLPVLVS
MLL AF4-AF9 inh = inhibitors of AF4 peptide binding to AF9, primary screen, biochemical, AlphaScreen, biotin-AF4 peptide, FLAG-AF9, single point; Protein AF-9 (Homo sapiens), P42568; inhibition, % at 10 µM; hit rate 0.47% among 350,000; AID 651704, 2012;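 active = every replicate reaching a set inhibition limit, whatever the replicate mean, cut at about 25% in these data; inconclusive = mean inhibition reaches that limit but some replicates miss it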;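 note: 0% = plate neutral control median and 100% = total signal loss; the record names both 10 and 1 µM as test concentration; the first replicate is given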
Vif TR-FRET = inhibitors of Vif binding to APOBEC3G peptide, primary screen, biochemical, TR-FRET, GST-Vif 1-94, biotin-A3G peptide, dose response retest (AID 1117319). Virion infectivity factor (Human immunodeficiency virus type 1 group M subtype B (isolate …. TR-FRET GST-Vif / biotin-A3G peptide binding; higher % means a stronger effect; test concentration not given here; strong numbers were not always called active. inhibition, %, or IC50 in µM where a hit was titrated. hit rate 0.57% among 260,000;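 active = above the screen mean plus three standard deviations and confirmed in dose response; inconclusive = results disagree or hit not tested in dose response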;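 note: Vif residues 1-94 fused to GST binding biotinylated APOBEC3G peptide 110-148; 0% = full assay without inhibitor and 100% = GST in place of GST-Vif; retest series ran down from 100 µM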
Ecoli rRNA inh = reduced GFP signal of wild-type E. coli, primary screen, bacterial rRNA inhibitor project, GFP/RFP fluorescence, OD600, single point; E. coli WT GFP vs humanized-ribosome RFP mutants, 24 h; active compounds read low; DMSO median 0, no signal -100; GFP signal change (wild-type ribosome), % (no concentration beside the values); hit rate 1.6% among 350,000; AID 720706, 2013;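 active = significant combined selectivity score with lowered wild-type GFP, culture density cut under 30%, mutant RFP and density less affected; inactive = any of these conditions unmet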; note: one replicate is shown; some compounds called inactive have numbers as strong as hits
ALR inh = inhibitors of human ALR sulfhydryl oxidase, primary screen, biochemical, H2O2 detection, HRP-luminol luminescence, single point; purified ALR, DTT oxidation; inhibition, % (no concentration beside the values); hit rate 3.8% among 290,000; AID 485317, 2010;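 active = mean and each replicate at 75% or more; inconclusive = only one of the two met; inactive = neither met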;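 note: stock transfer was 7.5 nL into about 7.5 µL; 0% = neutral wells and 100% = wells with inactivated enzyme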
Target sequence (P55789 whole entry, looked up): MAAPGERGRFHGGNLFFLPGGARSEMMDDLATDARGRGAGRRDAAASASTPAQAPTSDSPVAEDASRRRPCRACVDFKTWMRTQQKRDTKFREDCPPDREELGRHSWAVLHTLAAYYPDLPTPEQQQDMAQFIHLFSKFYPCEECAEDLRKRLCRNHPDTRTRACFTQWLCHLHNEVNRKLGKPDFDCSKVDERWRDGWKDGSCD
Ecoli growth = E. coli growth inhibition, primary screen, OD600. Escherichia coli growth, 23 h; active compounds read low. OD600 absorbance (no concentration beside the values). hit rate 0.21% among 330,000;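 active = OD600 absorbance below the run mean of sample wells minus 3.6 SD, in any replicate, cut at about 0.56 in these data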;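 note: stock transfer was 300 nL into about 60 µL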
HNF4A DNA FP = change in binding of human HNF4A to DNA, primary screen, biochemical, fluorescence polarization, FITC-DNA; 1 h; activity change, % at 10 µM; hit rate 0.3% among 360,000; AID 1224865, 2016; in the data active = activity change above about 30%, passing the limit was not always enough;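 note: controls were the assay level and a saturating level of protein; the project sought stronger binding though the title names inhibitors; some compounds called inactive have numbers as strong as hits; positive values seem to mean higher polarization but the record does not say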
Target sequence (P41235 whole entry, looked up): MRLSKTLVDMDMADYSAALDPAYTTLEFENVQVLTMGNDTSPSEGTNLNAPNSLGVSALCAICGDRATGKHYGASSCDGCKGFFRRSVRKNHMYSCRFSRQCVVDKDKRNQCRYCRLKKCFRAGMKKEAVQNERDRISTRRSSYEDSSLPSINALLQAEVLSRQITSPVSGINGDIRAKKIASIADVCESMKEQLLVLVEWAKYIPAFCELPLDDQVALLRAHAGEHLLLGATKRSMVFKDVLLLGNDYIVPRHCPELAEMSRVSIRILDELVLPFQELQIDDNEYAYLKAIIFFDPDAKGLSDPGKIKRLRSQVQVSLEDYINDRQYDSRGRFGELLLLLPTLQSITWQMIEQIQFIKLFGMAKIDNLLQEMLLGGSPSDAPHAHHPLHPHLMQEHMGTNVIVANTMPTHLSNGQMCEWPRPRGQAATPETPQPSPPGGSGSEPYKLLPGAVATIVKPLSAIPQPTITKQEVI
Ecoli rRNA inh OD600 = second read-out of Ecoli rRNA inh, no call of its own (marks repeat the call); OD600 change, %; measured here: OD600 growth;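 optical density of the mix in the first replicate; 0 = DMSO median and -100 = no signal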
Ecoli rRNA inh RFP = also measured in Ecoli rRNA inh; calls as there; RFP signal change, %; measured here: RFP humanized mutant strains;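 first replicate; 0 = DMSO median and -100 = no signal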
Numbers without * were called inactive; i = inactive; u = inconclusive; x = not tested or not shown; & = joins results of further samples. These rows are one share of the data; rates above refer to the full screens.

SMILES	FGF22 binding	MLL AF4-AF9 inh	Vif TR-FRET	Ecoli rRNA inh	Ecoli rRNA inh OD600	Ecoli rRNA inh RFP	ALR inh	Ecoli growth	HNF4A DNA FP
CC(C)Sc1nc2c(c(=O)[nH]c(=O)n2C)n1Cc1ccccc1	i	-0.3	10%	-2	0	0.2	-8	0.64	-0.5
Cc1ccc(OCC(=O)N2CCOCC2)c([N+](=O)[O-])n1	i	2.9	0%	11	5	-1.2	18	0.65	0.9
CC(=O)c1c(N2CCN(C(=O)C3CCCO3)CC2)nc(=S)n(-c2ccccc2)c1C (centres undefined)	i	-45	5%	8	9	-1.7	11	0.67	2.6
CCOC(=O)C1CCN(c2c(NC3CCCc4ccccc43)c(=O)c2=O)CC1 (centres undefined)	i	3.7	-2%	-2	-3	-3.4	-10	0.72	-5.8
Cc1ccc(NC2=CC(=O)CC(c3ccco3)C2)c(N)c1 (centres undefined)	x	x	23%	x	x	x	98*	0.72	-1.4
O=C1OC2(c3ccccc3)C3CCCC2C13	x	x	u	x	x	x	-9	0.72	1.6
O=C(N[C@H]1CC[C@@H](CCn2cc(-c3ccccc3F)nn2)O[C@H]1CO)c1ccc2c(c1)OCO2	i	-19	x	-9	-8	1.9	x	x	x
O=C1C2C3C=CC(CC3)C2C(=O)N1c1ccccc1F (centres undefined)	i	-0.7	-11%	2	1	0.9	-6	0.67	3.0
CC(C)c1ccc(S(=O)(=O)N2CCN(C(=O)CN3C(=O)NC4(CCCC4)C3=O)CC2)cc1	i	-9.1	x	0	11	0.4	3	0.71	14
O=C(Nc1nc(=O)[nH]s1)c1ccccc1	i	0.4	3%	-2	-5	-6.3	6	0.66	-0.5
COc1ccc(NC(=O)CSCC(=O)N(C)CC(=O)Nc2ccc(Cl)c(C(F)(F)F)c2)cc1	i	-4.9	1%	-31	-41	-8.1	-11	0.69	-4.2
COc1cc2c(cc1OC)C(/C(C#N)=N\O)=NC(C)(C)C2	x	x	4%	x	x	x	1	x	-1.4
Cc1nnc(SCC(=O)Nc2ccc(N3CCOCC3)cc2)n1-c1ccccc1	x	x	-3%&17%	x	x	x	x	0.79	-4.2
CS(=O)(=O)N(CC(=O)Nc1cccc(Br)c1)Cc1ccccc1	i	-8.6	x	-24	-25	-2.7	-19	0.68	-2.0
COc1ccc(N(CC(=O)Nc2cc(OC)ccc2OC)S(C)(=O)=O)cc1	x	x	14%	x	x	x	-9	0.69	0.2
N/C(=N\NS(=O)(=O)c1ccccc1Cl)c1ccccn1	i	-2.2	x	0	-19	-3.5	83*	0.66	-2.6
CCN(c1ccccc1)S(=O)(=O)c1ccc(C(=O)N2CC(C)CC(C)C2)cc1 (centres undefined)	x	-0.7	-6%	-21	-42	-4.9	-2	0.64	1.0
Cc1ccc2nc(-c3ccco3)c(Cc3ccccc3)n2c1	i	4.9	x	-44	-76	-13	x	x	7.9
COc1cc(NC(=O)COC(=O)Cc2ccsc2)cc(OC)c1	i	0.3	14%	-3	-4	-1.8	x	0.68	0.1
COc1cc([N+](=O)[O-])ccc1N1C(=O)C2C3C=CC(C4CC34)C2C1=O (centres undefined)	i	3.2	-3%	12	9	-0.3	-17	0.66	2.4
COc1ccc2c3c([nH]c2c1)[C@H](CO)N(C(=O)C1CC1)CC31CN(C(=O)NC(C)C)C1	i	2.2	x	5	13	-1.1	x	x	x
CCOC(=O)C1=C(C)NC(=O)NC1C(C)C (centres undefined)	i	-0.9	x	8	18	0.8	-12	0.64	4.9
O=C(CCn1cccn1)N1CCCC(N2CCN(c3cccc(C(F)(F)F)c3)CC2)C1 (centres undefined)	i	1.9	x	1	-1	2.2	-3	0.71	-3.9
CC1CN(/C=C/C(=O)C(F)(F)F)CC(C)O1 (centres undefined)	i	-0.8	4%	8	15	0.4	-5	0.68	2.1

Next section, starting with the last 4 of the part before.
SMILES	FGF22 binding	MLL AF4-AF9 inh	Vif TR-FRET	Ecoli rRNA inh	Ecoli rRNA inh OD600	Ecoli rRNA inh RFP	ALR inh	Ecoli growth	HNF4A DNA FP
COc1ccc2c3c([nH]c2c1)[C@H](CO)N(C(=O)C1CC1)CC31CN(C(=O)NC(C)C)C1	i	2.2	x	5	13	-1.1	x	x	x
CCOC(=O)C1=C(C)NC(=O)NC1C(C)C (centres undefined)	i	-0.9	x	8	18	0.8	-12	0.64	4.9
O=C(CCn1cccn1)N1CCCC(N2CCN(c3cccc(C(F)(F)F)c3)CC2)C1 (centres undefined)	i	1.9	x	1	-1	2.2	-3	0.71	-3.9
CC1CN(/C=C/C(=O)C(F)(F)F)CC(C)O1 (centres undefined)	i	-0.8	4%	8	15	0.4	-5	0.68	2.1
Cc1ccc(S(=O)(=O)N=S(CC2CC2(Cl)Cl)CC2CC2(Cl)Cl)cc1 (centres undefined)	x	x	u	x	x	x	x	0.71	2.3
Cc1ccc(C(C)NC(=O)Cc2cccs2)cc1C (centres undefined)	i	1.2	7%	1	0	-0.9	-9	0.72	-2.3
C=CCn1c(SCC)nc(O)cc1=O	x	x	1%	x	x	x	-4	0.68	-0.2
O=C(O)c1cccc(S(=O)(=O)N2CCN(C(c3ccccc3)c3ccccc3)CC2)c1	i	1.3	-5%	-10	-16	-3.4	3	0.62	-1.4
Fc1ccc(Nc2ncnc3sc4c(c23)CCC4)cc1	x	x	12%	x	x	x	-6	0.64	-4.0
C/C=C(\C)CN1CCC(Oc2cccc(C(=O)NCc3ccccn3)c2)CC1	i	1.2	x	6	0	4.9	1	x	0.1
COc1ccc(NC(=O)CSc2nnc(NC(=O)c3ccco3)s2)cc1	i	-0.3	0%	8	9	7.0	x	0.72	-4.5
COc1cc(-c2coc3c(C(=O)NCc4ccc(OC)c(OC)c4)cccc23)ccc1O	i	0.3	x	-31	-48	-9.3	x	x	-6.7
C[C@@H]1CN([C@H](C)CO)C(=O)c2cc(NC(=O)CCCN(C)C)ccc2O[C@@H]1CN(C)S(C)(=O)=O	i	-3.3	x	4	11	-2.1	x	x	x
COCC(=O)Nc1ccc2c(c1)C(=O)N(C)C[C@H](OC)[C@@H](C)CN(Cc1cccc(F)c1)[C@@H](C)CO2	i	0.3	x	0	-4	0.7	x	x	x
COc1ccc(S(=O)(=O)Nc2ccc3c(c2)N(C(C)=O)CCC3)cc1OC	i	-3.2	x	5	0	3.7	-7	x	-5.8
O=C1NC[C@@H](CCCCN2CCN(CCC3CCCCC3)C(=O)C2=O)N(Cc2ccccc2)C1=O	i	-2.9	x	-4	0	7.2	x	x	2.0
O=C(Nc1cc([N+](=O)[O-])ccc1F)C1CC1	x	x	11%	x	x	x	5	0.69	-1.2
Cc1ccc(N(CC(=O)NCCSCc2ccco2)S(=O)(=O)c2ccc(F)cc2)cc1	i	3.9	11µM*	-20	-18	0.8	1	0.65	5.2
O=C(NC1CCC(O)CC1)c1ccc2c(c1)S(=O)(=O)N=C1CCCCCN12 (centres undefined)	i	-1.0	4%	11	9	0.6	0	0.69	6.0
COC(=O)c1noc(-c2ccc(C)cc2)n1	x	x	6%	x	x	x	-1	0.69	-2.2
CCC(C)NC(=O)CSc1ccc(S(=O)(=O)N2CCN(Cc3ccccc3)CC2)cn1 (centres undefined)	i	-19	93%	-2	2	-2.2	0	0.64	1.7
O=C(COC(=O)c1cccc(F)c1)Nc1cccc(S(=O)(=O)N2CCOCC2)c1	i	-2.6	2%	2	-2	0.3	x	x	1.7
O=C(CN1C(=O)C2CC=CCC2C1=O)Nc1ccccc1N1CCCC1 (centres undefined)	i	0.1	2%	0	1	1.0	u	0.69	0.2
O=c1c2ccccc2nc2n1C(CSCc1ccc(Cl)cc1)CS2 (centres undefined)	x	x	5%	x	x	x	x	0.76	3.5
O=C(NCc1ccc(Cl)cc1)C1CCN(S(=O)(=O)c2cccc3nonc23)CC1	i	-10	-5%	19	12	1.1	3	0.53*	4.0
Cc1cc(C)n(CCCNCC(O)c2ccccc2)n1 (centres undefined)	i	0.2	-5%&5%	7	10	4.2	-16	0.68&0.67	1.1&-2.5
Cc1ccc(NC(=O)C[n+]2cc(-c3ccccc3)n3c2CCC3)cc1	i	1.7	u	-40*	17*	17*	-1	0.61	3.4
O=C(Nc1ccc(F)cc1)c1cccc(N2C(=O)C3C4CCC(C4)C3C2=O)c1 (centres undefined)	i	1.9	3%	x	x	x	1	0.72	1.4
Cn1cc(C(=O)c2ccccc2C(=O)O)cc1C(=O)C(Cl)(Cl)Cl	i	11	x	11	14	0.4	x	0.65	1.4
CCCc1nnc(SCC(=O)NC2CCCC2)n1CCOC	i	1.3	x	3	22	-2.2	-1	0.69	0.0
CCN(c1ccc(NC(=O)COC(=O)c2ccc(C)c(S(=O)(=O)N3CCOCC3)c2)cc1)C(C)C	x	x	26%	x	x	x	61	0.67	1.8
Cn1cccc1C(=O)NCC(c1ccc(F)cc1)N1CCOCC1 (centres undefined)	i	-4.5	x	7	14	3.8	1	0.64	2.5
Cc1ccccc1OCC(O)Cn1c(Br)nc2c1c(=O)n(C)c(=O)n2C (centres undefined)	i	-0.4	12%	-6	-1	0.6	0	0.69	1.9
Cc1ccc(S(=O)(=O)N2CCOCC2)cc1C(=O)N1CCc2ccccc21	i	2.8	-1%	-8	-14	3.5	-3	0.69	2.3
CC(C)=CCC/C(C)=C/CNC(=O)C[C@H]1C[C@H](C(=O)N2CCCCC2)[C@@]2(CCc3ccccc3)c3[nH]c4ccc(Cl)cc4c3CCN2C1=O	i	-1.3	x	24	19	8.8	x	0.74	-1.5
Cc1cc(C)c2ccc(/C=N/O)nc2c1O	i	-4.9	12%	-7	-14	1.9	4	x	2.2
Cc1ccc(-c2nn(CC(=O)NCc3ccco3)c(=O)c3ccccc23)cc1	x	x	-3%	x	x	x	6	0.69	-1.2
COc1cccc(NC(=O)CCNC(=O)c2ccccc2Cl)c1	x	x	-1%	x	x	x	-2	0.7	-3.6
COc1ccc(NC(=O)CSc2nnc(COc3ccccc3)n2Cc2ccco2)cc1OC	x	x	-3%	x	x	x	-5	0.69	-0.2
C[C@@H]1CN([C@@H](C)CO)S(=O)(=O)c2ccc(Br)cc2O[C@@H]1CN(C)S(=O)(=O)c1ccccc1	i	1.9	x	-19	-45	1.2	x	x	x
Cc1ccc(CSc2nc3ccncc3n2CC(=O)Nc2cc(C)cc(C)c2)cc1	i	-6.0	-49%	2	13	1.3	-3	0.67	2.2

3 entries drawn at random from those above, as already listed:
SMILES	FGF22 binding	MLL AF4-AF9 inh	Vif TR-FRET	Ecoli rRNA inh	Ecoli rRNA inh OD600	Ecoli rRNA inh RFP	ALR inh	Ecoli growth	HNF4A DNA FP
Cc1ccc(CSc2nc3ccncc3n2CC(=O)Nc2cc(C)cc(C)c2)cc1	i	-6.0	-49%	2	13	1.3	-3	0.67	2.2
Cc1cc(C)c2ccc(/C=N/O)nc2c1O	i	-4.9	12%	-7	-14	1.9	4	x	2.2
Cc1ccc(-c2nn(CC(=O)NCc3ccco3)c(=O)c3ccccc23)cc1	x	x	-3%	x	x	x	6	0.69	-1.2
